Source: PubChem BioAssay (Broad Institute)
DUX4 txn inh = inhibitors of DUX4-driven ZSCAN4 reporter expression, primary screen, 293T cells, Gaussia and Italica luciferase; 293T-iDUX4 ZSCAN4-Gaussia luciferase reporter, 24 h; hits give low values; activity change, negative = inhibition, % (test concentration not listed); 37,000 tested, 0.8% active;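 active = -10% or lower and over 25 points stronger than a control reporter; inconclusive = -10% or lower with a smaller gap; inactive = above -10%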;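 note: 0% = median of neutral control wells and -100% = median of positive control wells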
DUX4 txn inh difference = second read-out of DUX4 txn inh, no call of its own (marks repeat the call); Gaussia minus Italica difference, %; measured here: selective DUX4 reporter inhibition;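 worked out from the two reporters; negative = selective loss of the DUX4 reporter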
DUX4 txn inh control = also measured in DUX4 txn inh; calls as there; activity change, negative = inhibition, %; measured here: Italica tet-on control reporter;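 0 = neutral control and -100 = positive control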
Numbers without * were called inactive; u = inconclusive; x = not tested or not shown; & = joins results of further samples. The list is partial; count on the stated rates, not on these rows.

Each structure is followed by: DUX4 txn inh	DUX4 txn inh difference	DUX4 txn inh control
(1) O=C(Cc1cccnc1)N1CC(=O)N2[C@H](CO)[C@@H](c3ccc(/C=C/c4ccccc4)cc3)[C@H]2C1
  0	1	-0.9
(2) COc1ccc(-c2ccc3c(c2)[C@@H]2[C@@H](CCN2C(=O)c2ccc(F)cc2)[C@@H](CO)N3C)cc1
  u	x	x
(3) O=C(c1cnccn1)N1C[C@@H]2N[C@H](C1)C2c1ccc(/C=C/c2ccccc2)cc1 (some centres not stated)
  -5&-1	4&-9	-9.6&8.4
(4) COc1ccccc1S(=O)(=O)N(C)C[C@@H]1OCc2cnnn2CCCC(=O)N([C@H](C)CO)C[C@H]1C
  2	0	2.4
(5) COCC(=O)Nc1ccc2c(c1)C(=O)N(C)[C@@H]1CC[C@H](CC(=O)NCCc3ccccc3)O[C@H]1CO2
  1	-1	1.9
(6) Cc1noc(C)c1NC(=O)Nc1ccc2c(c1)C(=O)N([C@@H](C)CO)C[C@@H](C)[C@H](CN(C)C(=O)NC1CCCCC1)OCCCC[C@H](C)O2
  -2	-5	3.0
(7) C[C@H](CO)N1C[C@H](C)[C@@H](CN(C)S(=O)(=O)c2cccs2)OCCCC[C@H](C)Oc2ccc(NC(=O)c3ccccc3)cc2C1=O
  0	4	-4.7
(8) C/C=C/c1cccc(-c2nc(C(=O)NCc3cccc(OC)c3)cc3c2[C@H](CCO)N([S@@](=O)C(C)(C)C)C3)c1
  -3	-1	-2.4
(9) CCS(=O)(=O)N1CCCCN2[C@@H](CO)[C@@H](c3ccc(-c4ccc(C(=O)N(C)C)cc4)cc3)[C@@H]2C1
  5	2	2.9
(10) COc1ccccc1CN(C)C[C@H]1OCc2cn(nn2)CCCC(=O)N([C@@H](C)CO)C[C@H]1C
  8	7	1.6
(11) CN(C)CC(=O)N1C[C@@H]2[C@H](c3ccccc31)[C@H](CO)N2C(=O)c1ccccn1
  -3	-2	-0.3
(12) C/C=C/c1cnc2c(c1)C(=O)N([C@H](C)CO)C[C@H](C)[C@H](CN(C)CC1CCOCC1)O2
  1	2	-0.2
(13) CO[C@H]1CN(C)C(=O)c2cc(C#N)ccc2OC[C@H]2O[C@@H](CC[C@H]2OC)CCN(C)C(=O)[C@@H]1C
  2	3	-1.3
(14) COc1ccccc1-c1ccc2c(c1)[C@H]1[C@H](CCN1S(=O)(=O)c1ccccc1)[C@@H](CO)N2
  u	x	x
(15) COc1cccc(S(=O)(=O)N2C[C@@H]3N[C@H](C2)C3c2ccc(-c3ccc(C(=O)N(C)C)cc3)cc2)c1 (some centres not stated)
  u	x	x
(16) CCCNC(=O)N1C[C@H]2[C@@H](c3ccccc31)[C@H](CO)N2Cc1cccc(OC)c1
  6	2	4.2
(17) O=C(C[C@@H]1C=C[C@H](NC(=O)c2cccc(F)c2)[C@H](CO)O1)Nc1nccs1
  -4	1	-4.3
(18) CCCC(=O)Nc1ccc2c(c1)OC[C@@H](C)N(Cc1nccs1)C[C@@H](C)[C@@H](OC)CN(C)C2=O
  -2	-2	-0.1
(19) CN1CCN(C(=O)c2cc3c(c(-c4cccc(-c5ccc(C(=O)N(C)C)cc5)c4)n2)[C@@H](CCO)N([S@](=O)C(C)(C)C)C3)CC1
  2	3	-0.9
(20) COc1ccc2c3c(n(C)c2c1)[C@@H](CO)N(Cc1nccs1)CC31CCN(CC2CCCC2)CC1
  u	x	x
(21) C[C@@H]1CN([C@@H](C)CO)C(=O)c2cc(NC(=O)Nc3cccc4ccccc34)ccc2O[C@@H](C)CCCCO[C@@H]1CN(C)Cc1ccc(C(F)(F)F)cc1
  -2	-3	1.1
(22) COCCNC(=O)C[C@H]1CC[C@@H]2[C@H](COC[C@@H](O)CN2Cc2cccc(-c3ccncc3)c2)O1
  3	6	-3.3
(23) O=C(Nc1ccc(F)cc1)N1CC(=O)N2[C@H](CO)[C@H](c3ccc(C#Cc4cccnc4)cc3)[C@H]2C1
  u	x	x
(24) C[C@@H]1CN([C@@H](C)CO)C(=O)c2cccc(NC(=O)C3CCOCC3)c2O[C@H]1CN(C)C(=O)Nc1ccc2c(c1)OCO2
  -2	1	-3.1
(25) C/C=C/c1cnc2c(c1)C(=O)N([C@H](C)CO)C[C@@H](C)[C@H](CN(C)S(=O)(=O)c1cn(C)cn1)O2
  0	-4	4.0
(26) O=C(C[C@@H]1C[C@@H]2c3cc(NC(=O)c4cccnc4)ccc3O[C@@H]2[C@H](CO)O1)NCCN1CCCCC1
  5	6	-0.1
(27) COc1ccc(CN2[C@H](CO)[C@@H]3c4ccccc4N(C(=O)C4CC4)C[C@@H]32)cc1
  3	-1	4.1
(28) CNC[C@H]1Oc2ccc(NS(=O)(=O)c3cn(C)cn3)cc2CC(=O)N([C@H](C)CO)C[C@H]1C
  3	3	-0.3
(29) CC(C)NC(=O)Nc1ccc2c(c1)C(=O)N([C@H](C)CO)C[C@H](C)[C@@H](CN(C)S(=O)(=O)c1ccc(F)cc1)OCCCC[C@H](C)O2
  6	2	4.7
(30) C[C@@H]1CN([C@H](C)CO)C(=O)c2cc(NC(=O)Nc3ccc4c(c3)OCO4)ccc2O[C@@H](C)CCCCO[C@@H]1CN(C)S(=O)(=O)c1ccccc1
  -3	-5	1.2
(31) CCNC(=O)[C@@H]1[C@@H](CO)[C@@H]2Cn3c(ccc(-c4cccc(F)c4)c3=O)[C@@H]2N1C(=O)Cc1cccnc1
  -3	-12	9.1
(32) O=C(CN1CCOCC1)N[C@H]1CC[C@H](CCNC(=O)Nc2cc(F)ccc2F)O[C@H]1CO
  3	4	-0.6
(33) CCC(=O)N1[C@H](CO)[C@H](c2ccccc2)[C@H]1CN(CC)C(=O)c1ccc(F)cc1
  1	-3	4.3
(34) CN(C)C(=O)c1ccc(-c2ccc([C@H]3[C@@H](C#N)N(S(C)(=O)=O)[C@@H]3CO)cc2)cc1
  1	-5	5.5
(35) CC=Cc1ccc2n(c1=O)C[C@@H]1[C@@H](CO)[C@H](C(=O)NCCC)N(C(=O)c3cccnc3)[C@H]21 (mixture of isomers)
  -1	1	-1.8
(36) O=C(C[C@@H]1CC[C@H]2[C@@H](COC[C@H](O)CN2S(=O)(=O)c2ccc(Oc3ccccc3)cc2)O1)Nc1ccccc1
  u	x	x
(37) O=C1CNC[C@H]2[C@H](c3ccc(-c4ccccc4F)cc3)[C@H](CO)N12
  -3	-2	-0.7
(38) O=C(NCc1ccc(F)cc1)[C@@H]1[C@@H](CO)[C@@H]2Cn3c(cccc3=O)[C@@H]2N1Cc1ccccn1
  8	3	4.7
(39) CN1CCN(C(=O)C[C@H]2C=C[C@@H](NC(=O)Cc3ccccn3)[C@H](CO)O2)CC1
  2	0	2.4
(40) COc1ccccc1CNC(=O)C[C@@H]1C[C@@H]2c3cc(NC(=O)Nc4ccc(C(F)(F)F)cc4)ccc3O[C@@H]2[C@H](CO)O1
  -9	-17	7.8

The last 3 records of the part above open the next one.
Each structure is followed by: DUX4 txn inh	DUX4 txn inh difference	DUX4 txn inh control
(38) O=C(NCc1ccc(F)cc1)[C@@H]1[C@@H](CO)[C@@H]2Cn3c(cccc3=O)[C@@H]2N1Cc1ccccn1
  8	3	4.7
(39) CN1CCN(C(=O)C[C@H]2C=C[C@@H](NC(=O)Cc3ccccn3)[C@H](CO)O2)CC1
  2	0	2.4
(40) COc1ccccc1CNC(=O)C[C@@H]1C[C@@H]2c3cc(NC(=O)Nc4ccc(C(F)(F)F)cc4)ccc3O[C@@H]2[C@H](CO)O1
  -9	-17	7.8
(41) COCC#Cc1ccc2c(c1)O[C@H](CN(C)CC1CCCCC1)[C@H](C)CN([C@H](C)CO)S2(=O)=O
  2	-2	4.7
(42) COCC#Cc1ccc([C@@H]2[C@H](CO)N3C(=O)CN(C(=O)c4ccncc4)C[C@@H]23)cc1
  5	1	4.4
(43) CO[C@@H](CN(C)C(=O)c1ccc2c(c1)OCO2)[C@@H](C)CN([C@@H](C)CO)S(=O)(=O)c1ccc(C)cc1
  3	1	1.2
(44) CNC(=O)C[C@H]1CC[C@H]2[C@@H](COc3ccc(NC(=O)Nc4cccc(C)c4)cc3C(=O)N2C)O1
  2	0	2.5
(45) CCC(=O)N1[C@@H]2c3ccc(-c4cncnc4)c(=O)n3C[C@H]1[C@H](CO)[C@H]2C(=O)N1CCc2ccccc2C1
  3	0	3.7
(46) O=C(c1ccc(F)cc1)N1CC[C@H]2[C@H](CO)Nc3ccc(C#Cc4ccccc4F)cc3[C@H]21
  0	-3	2.9
(47) O=C(O)C[C@H]1C[C@H]2c3cc(NC(=O)Nc4ccccc4F)ccc3O[C@H]2[C@@H](CO)O1
  1	-2	3.3
(48) CCC(=O)Nc1ccc2c(c1)OC[C@H](C)N(CC1CC1)C[C@@H](C)[C@H](OC)CN(C)C2=O
  -3	-3	0.7
(49) COc1ccc2c3c([nH]c2c1)[C@H](CO)N(S(C)(=O)=O)CC31CN(C(=O)c2ccccc2)C1
  8	-6	13
(50) CN(C)CC(=O)Nc1ccc2c(c1)[C@H]1C[C@@H](CC(=O)NCC3CC3)O[C@H](CO)[C@H]1O2
  2	-5	7.6
(51) COCCNC(=O)C[C@H]1CC[C@H]2[C@@H](COC[C@@H](O)CN2Cc2cccc(-c3ccncc3)c2)O1
  3	8	-5.7
(52) CCS(=O)(=O)N1CC2(CN(Cc3ccc4c(c3)OCO4)[C@@H](CO)c3c2c2ccc(OC)cc2n3C)C1
  u	x	x
(53) CS(=O)(=O)N1[C@H](C#N)[C@H](c2ccccc2-c2ccccc2F)[C@@H]1CO
  14	9	5.7
(54) COCC(=O)N1C[C@@H]2[C@H](c3ccccc31)[C@H](CO)N2C(=O)C1CCCC1
  -4	-9	4.6
(55) N#C[C@H]1[C@H](c2ccc(-c3ccc(F)cc3)cc2)[C@H](CO)N1C(=O)Cc1ccccc1
  u	x	x
(56) CO[C@@H]1CN(C)C(=O)c2ccc(NC(=O)NC3CCCCC3)cc2OC[C@@H](C)N(CCc2ccccc2)C[C@H]1C
  u	x	x
(57) CCS(=O)(=O)N1CC2(CN(Cc3ccc4c(c3)OCO4)[C@H](CO)c3[nH]c4cc(OC)ccc4c32)C1
  u	x	x
(58) CCC(=O)N1CC2(C1)[C@H](c1ccc(-c3ccccc3)cc1)[C@H](CO)N2S(C)(=O)=O
  0	4	-3.6
(59) Fc1cccc(CN2C[C@@H]3N[C@H](C2)C3c2ccc(/C=C/c3ccccc3)cc2)c1 (some centres not stated)
  u	x	x
(60) C[C@H]1CN([C@@H](C)CO)C(=O)c2ccccc2-c2ccccc2CO[C@@H]1CN(C)C(=O)Nc1cccc(F)c1
  4	-2	6.0
(61) CCC(=O)N1CC2(C1)[C@@H](c1ccccc1)[C@@H](CO)N2Cc1cc(F)ccc1F
  0	-1	1.3
(62) COC(=O)C[C@@H]1CC[C@@H]2[C@H](COc3ccc(NC(=O)c4ccc(F)c(F)c4)cc3C(=O)N2C)O1
  2	3	-1.3
(63) O=C(c1cccc(F)c1)N1CC(=O)N2[C@H](CO)[C@@H](c3ccc(-c4ccccc4F)cc3)[C@H]2C1
  -8	-10	1.6
(64) CCN(C[C@H]1[C@H](c2ccccc2)[C@@H](CO)N1S(C)(=O)=O)C(=O)C1CC1
  -2	-1	-0.8
(65) O=C(Nc1ccc(C(F)(F)F)cc1)N1[C@@H]2CNC[C@H]1C2c1ccc(-c2cccnc2)cc1 (some centres not stated)
  9&15	6&-14	3.8&30
(66) CCC(=O)N1[C@H](CN(C)C(C)=O)[C@H](c2ccc(C3=CCCC3)cc2)[C@@H]1CO
  1	-1	1.8
(67) C[C@@H]1CN([C@H](C)CO)C(=O)c2cc(C#CC3CC3)cnc2O[C@H]1CN(C)Cc1ccccc1C(=O)O
  1	-2	3.2
(68) CS(=O)(=O)N1C[C@@H](O)COC[C@H]2O[C@H](CC(=O)NCc3ccccc3)CC[C@@H]21
  3	6	-2.8
(69) CCCNC(=O)Nc1ccc2c(c1)C(=O)N(C)[C@@H]1CC[C@H](CC(=O)NCCCN(C)C)O[C@H]1CO2
  -1	-5	3.4
(70) CCCNC(=O)N1CC2(CN(C)C2)c2c(n(C)c3cc(OC)ccc23)[C@H]1CO
  9	-7	16
(71) COc1ccccc1NC(=O)N1CC(=O)N2[C@@H](CO)[C@@H](c3ccc(C#CC(C)C)cc3)[C@@H]2C1
  u	x	x
(72) COc1cccc(S(=O)(=O)N(C)C[C@@H]2OCc3ccccc3-c3c(n(C)c4ccccc34)C(=O)N([C@H](C)CO)C[C@@H]2C)c1
  u	x	x
(73) CO[C@@H]1CC[C@H]2CCOc3c(C#N)cccc3C(=O)N(C)C[C@@H](OC)[C@@H](C)C(=O)N(C)C[C@H]1O2
  4	1	2.5

Complete entries as entered above:
Fc1cccc(CN2C[C@@H]3N[C@H](C2)C3c2ccc(/C=C/c3ccccc3)cc2)c1 (some centres not stated) across the screens: DUX4 txn inh = u; DUX4 txn inh difference = x; DUX4 txn inh control = x
CO[C@@H]1CN(C)C(=O)c2ccc(NC(=O)NC3CCCCC3)cc2OC[C@@H](C)N(CCc2ccccc2)C[C@H]1C across the screens: DUX4 txn inh = u; DUX4 txn inh difference = x; DUX4 txn inh control = x
O=C(Cc1cccnc1)N1CC(=O)N2[C@H](CO)[C@@H](c3ccc(/C=C/c4ccccc4)cc3)[C@H]2C1 across the screens: DUX4 txn inh = 0; DUX4 txn inh difference = 1; DUX4 txn inh control = -0.9
